# From PubChem BioAssay
# B2AR arrestin – qHTS assay of beta-arrestin-biased ligands of beta2-adrenergic receptor. beta-arrestin recruitment to beta2AR, cell-based reporter. actives 0.02% (n = 330,000). Potency, µM (highest dose often 46.1 µM), inactives show top-dose activation, hits mostly activators. Beta-2 adrenergic receptor (Homo sapiens), P07550;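 note: potency is the fitted concentration of half-maximal effect; 0% = DMSO controls and full agonism = EC100 isoproterenol or metaproterenol; nearly all actives have a fitted effect of over 65% in size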
# Target sequence (P07550 whole entry, looked up): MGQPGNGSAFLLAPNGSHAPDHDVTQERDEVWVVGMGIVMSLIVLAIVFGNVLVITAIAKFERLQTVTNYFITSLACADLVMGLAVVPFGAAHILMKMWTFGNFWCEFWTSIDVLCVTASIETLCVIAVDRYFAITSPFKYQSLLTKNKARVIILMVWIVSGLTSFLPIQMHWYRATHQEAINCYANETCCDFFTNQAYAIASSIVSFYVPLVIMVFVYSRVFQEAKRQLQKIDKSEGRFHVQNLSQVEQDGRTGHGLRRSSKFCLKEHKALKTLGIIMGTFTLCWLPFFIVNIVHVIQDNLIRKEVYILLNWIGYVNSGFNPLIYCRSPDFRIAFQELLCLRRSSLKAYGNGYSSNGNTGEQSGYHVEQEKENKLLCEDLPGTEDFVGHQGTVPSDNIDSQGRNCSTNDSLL
# PTAP TSG101 blk – qHTS Assay for Iinhibitors of HIV-1 Budding by Blocking the Interaction of PTAP/TSG101. 340,000 tested, under 10 active. Fluorescence polarization, FITC-PTAP peptide / Tsg101 binding. AID 493005, 2010. Tumor susceptibility gene 101 protein (Homo sapiens), Q99816. Potency, µM (doses to about 115 µM), for inactives: at the highest dose activity change, negative = inhibition, hits mostly inhibitors; active = well fitted inhibition curve with a large enough effect in the main read-out, with a control signal flat, not every such curve was filed as active; inconclusive = small, poorly fitted or top-dose-only effect, or effect the other way, or a change in a side signal; inactive = no such curve, though single readings can be large or run the other way; note: potency is the fitted concentration of half-maximal effect; % of control where 0% means no effect
#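 Compounds were pin-transferred onto Tsg101 binding domain (10 uM final) in HEPES pH 7.5 buffer, then FITC-PTAP peptide was added at 50 nM final. After 20 min at RT, polarization reported peptide displacement across a qHTS concentration series.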
# Coupling enz – qHTS Assay for Inhibitors of Fructose-1,6-bisphosphate Aldolase from Giardia Lamblia: Coupling assay counterscreen; coupling enzyme system counterscreen, AmpLite Red fluorescence; activity change, negative = inhibition, % at 58.2 µM, hits read low; actives 0.67% (n = 290,000); AID 2472, 2010; in the data active = activity change below about -30%; note: % is set by controls: 0 for no effect and ±100 for the full control effect
#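 Counterscreen lacking aldolase: glyceraldehyde-3-phosphate coupling-enzyme reagent preincubated 10 min at RT with compound (at 57.5 uM final), then substrate/coupling system with AmpLite Red added; fluorescence read at 525/598 nm after 20 min RT.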
# Tb PFK inh – qHTS Assay to Find Inhibitors of T. brucei phosphofructokinase; ATP-dependent 6-phosphofructokinase (Trypanosoma brucei brucei), O15648; T. brucei PFK, ADP-Glo luminescence; Potency, µM (doses to about 57.5 µM), for inactives: top-dose activity, negative = inhibition, usual class: inhibitors; actives 0.17% (n = 330,000);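 note: potency is the fitted concentration of half-maximal effect; 0% = uninhibited 1x PFK enzyme wells and -100% = no-enzyme wells; nearly all actives have a fitted effect of over 60% in size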
# Target sequence (O15648 whole entry, looked up): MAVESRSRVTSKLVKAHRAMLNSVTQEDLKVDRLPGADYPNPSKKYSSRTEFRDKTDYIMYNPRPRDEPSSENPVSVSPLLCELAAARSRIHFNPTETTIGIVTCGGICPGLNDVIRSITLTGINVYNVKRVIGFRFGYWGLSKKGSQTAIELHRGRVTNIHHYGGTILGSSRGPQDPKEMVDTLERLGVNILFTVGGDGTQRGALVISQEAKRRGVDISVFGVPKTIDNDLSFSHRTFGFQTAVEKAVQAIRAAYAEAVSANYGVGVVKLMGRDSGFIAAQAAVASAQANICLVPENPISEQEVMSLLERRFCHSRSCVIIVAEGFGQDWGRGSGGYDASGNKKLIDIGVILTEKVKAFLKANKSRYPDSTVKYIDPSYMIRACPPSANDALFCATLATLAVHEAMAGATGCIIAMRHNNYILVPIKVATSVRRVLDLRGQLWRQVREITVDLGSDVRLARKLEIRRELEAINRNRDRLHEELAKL
#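 ADP-Glo luminescence quantified ADP after 45 min at room temperature, with 1.25 nM T. brucei PFK, 0.1 mM ATP and 0.5 mM fructose-6-phosphate in pH 8.0 TEA buffer. qHTS titrations up to 57 µM; curves classified by quality.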
# Menin-MLL TR inh – qHTS Assay for Inhibitors Targeting the Menin-MLL Interaction in MLL Related Leukemias: Competition With Texas Red Labeled MLL-derived Mutant Peptide. O00255. Potency, µM (titrated, usually from 61.6 µM), for inactives: at the highest dose FP activity change, negative = inhibition, most hits filed as inhibitors. Menin + Texas Red MLL mutant peptide, fluorescence polarization. actives 0.23% (n = 270,000). AID 1768, 2009; active = well fitted inhibition curve with a large enough effect in the polarisation, with a control signal flat, not every such curve was filed as active; inconclusive = small, poorly fitted or top-dose-only effect, or effect the other way, or a change in a side signal; inactive = no such curve, though single readings can be large or run the other way; the % refers to the polarisation; note: potency is the fitted concentration of half-maximal effect; % of control where 0% means no effect; many of its hits are not listed in these tables
# Giardia kill – Small Molecules that selectively kill Giardia lamblia: qHTS. Giardia lamblia trophozoite viability. activity change, % at 7.66 µM, hits read low. actives 0.15% (n = 340,000). AID 540267, 2011; in the data active = activity change below about -80%; inconclusive = between about -30% and that limit;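 note: parasites exposed to compound for two days anaerobically before the ATP read; % is set by controls: 0 for no effect and ±100 for the full control effect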
#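 Each well holds 100 Giardia trophozoites and compound. After two days (48 hrs) at 37 deg C in anaerobic conditions, ATP is quantified by luminescence.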
# a7 integrin act – qHTS for Activators of Integrin-Mediated Alleviation for Muscular Dystrophy. AID 624291, 2012. actives 0.064% (n = 350,000). Potency, µM (doses to about 38.3 µM), without a hit: top-dose activation, actives largely listed as activators. alpha7betagal myoblasts, beta-gal FDG fluorescence, 48 h;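 note: potency is the fitted concentration of half-maximal effect; 100% = response of the positive control SU9516; nearly all actives have a fitted effect of over 60% in size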
#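 Alpha7betagal+/- myoblasts (passage 13) were plated 16-24 hr, then exposed to compounds (1:260 dilution of DMSO stock) for 48 hours at 37C. After MPER lysis, β-galactosidase reporter activity was read as FDG fluorescence (ex 480/em 540) after 30 minutes.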
# BCR signal inh – qHTS Assay to Find Inhibitors of Chronic Active B-Cell Receptor Signaling | ABC-DLBCL IkBa-CBG/CBR reporter, luminescence ratio, 4 h | Potency, µM (series often up to 46.1 µM), inactives show at the top dose ratio change, negative = lower green/red ratio, usual class: inhibitors | actives 0.05% (n = 340,000) | AID 493014, 2011; active = well fitted inhibition curve with a large enough effect in the signal ratio, with a control signal flat, not every such curve was filed as active; inconclusive = small, poorly fitted or top-dose-only effect, or effect the other way, or a change in a side signal; the % refers to the signal ratio;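 note: potency is the fitted concentration of half-maximal effect; plate controls were basal doxycycline-induced cells for no effect and cells given 10 µM MG132 for full effect; MG132 reads +100%, hits lower the ratio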
#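 Doxycycline induced both beetle luciferases in TMD8 lymphoma cells; IKK-driven degradation limits the IkappaBalpha-fused green signal, while red luminescence normalises for cell number and nonspecific effects. Compounds tested up to 46 uM, 4 hrs.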
# GALK inhibitor – qHTS Assay for Inhibitors of Human Galactokinase (GALK) | actives 0.007% (n = 270,000) | Purified GALK, Kinase-Glo residual ATP luminescence | Potency, µM (titrated, usually from 57.5 µM), without a hit: top-dose activity change, negative = inhibition, actives largely listed as inhibitors | P51570; note: potency is the fitted concentration of half-maximal effect; % is set by controls: 0 for no effect and ±100 for the full control effect
#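 Compounds were pin-transferred into ATP buffer (35 uM final), then GALK plus galactose (5 nM, 100 uM final) was added. After 1 h at room temperature, Kinase-Glo Plus was added and luminescence read after 10 min.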
# Active calls of the source: *; ? = inconclusive; . = no result given; [ ] = dose if it differs, or a comment. Unless noted, calls come from the whole dose curve; as a rule, active = well fitted curve in the direction sought with a large enough effect; inconclusive = small, poorly fitted or top-dose-only effect, or another doubt; inactive = no such curve, though single readings can be large; an effect the other way counts as inactive or inconclusive. A portion of the library, so the mix of outcomes need not match the whole.
[1] Cc1cc(C)n2c(SCCN3C(=O)c4ccccc4C3=O)nnc2n1
[2] COc1ccc(S(=O)(=O)NC(C)C(=O)Nc2ccccc2F)cc1 (stereo not given)
[3] O=C(Nc1ccccc1Sc1ccccc1)C1CCCO1 (stereo not given)
[4] CCOC(=O)c1ccc(-n2c(=O)[nH]c3ccccc3c2=O)cc1
[5] O=C(c1cnccn1)N(c1ccccc1)C1(C(=O)NC2CCCCC2)CCCCC1
compound no.	1	2	3	4	5
B2AR arrestin	0.1%	-0.7%	0.1%	0.0%	-0.7%
PTAP TSG101 blk	-3%	-2%	-5%	-4%	-8%
Coupling enz	2	-1	1	-2	0
Tb PFK inh	-1%	0%	-10%	-14%	1%
Menin-MLL TR inh	12%	-12%	-9%	5%	-4%
Giardia kill	0	-7	-9	-4	0
a7 integrin act	1%	-22%	-2%	-2%	12%
BCR signal inh	2%	?	2%	8%	-10%
GALK inhibitor	-2%	-2%	1%	-2%	-1%

[6] Cc1cc(C(=O)Nc2cccnc2)on1
[7] COCCn1cc(C(=O)c2ccccc2OCC(=O)Nc2cc(C)on2)cc(C#N)c1=O
[8] CN1C(=O)c2ccccc2C(C(=O)NCc2ccco2)C1c1c[nH]c2ccccc12 (stereo not given)
[9] Cc1c(C(=O)NCC(C)C)sc2nc(-c3ccc(F)cc3)cn12
[10] COc1ccc(NC(=O)COc2nc(N(C)C)nc(N(C)C)n2)cc1
compound no.	6	7	8	9	10
B2AR arrestin	-0.2%	0.0%	.	0.2%	0.4%
PTAP TSG101 blk	-1%	-6%	-2%	-1%	-11%
Coupling enz	0	3	1	-1	2
Tb PFK inh	7%	0%	.	1%	19%
Menin-MLL TR inh	-3%	-3%	-2%	7%	-2%
Giardia kill	-2	-15	-15	13	29
a7 integrin act	7%	4%	9%	4%	31%
BCR signal inh	6%	?	.	?	9%
GALK inhibitor	-1%	-3%	4%	-1%	-3%

[11] COc1ccc(O)c(-c2cn[nH]c2-c2cccs2)c1
[12] CC(=O)Nc1ccc(NC2=CC(=O)CC(C)(C)C2)cc1
[13] COc1cc(NC(=O)C2CCCN2C(=O)OCc2ccccc2)cc(OC)c1 (stereo not given)
[14] O=C(NCc1ccco1)C1CCN(S(=O)(=O)N2CCOCC2)CC1
[15] Cc1cc2cc(CN(CCN3CCOCC3)C(=O)Nc3ccccc3F)c(=O)[nH]c2cc1C
compound no.	11	12	13	14	15
B2AR arrestin	-0.5%	-0.3%	-0.3%	0.5%	-0.6%
PTAP TSG101 blk	-3%	1%	-2%	-3%	-4%
Coupling enz	-4	0	-1	4	-4
Tb PFK inh	-2%	-1%	-9%	-7%[0.46 µM]	-22%
Menin-MLL TR inh	-27%	11%	3%	-5%	-13%
Giardia kill	-15	-1	-10	-2	6
a7 integrin act	30%	25%	-6%	-8%	2%
BCR signal inh	-2%	?	-6%	-4%	0%
GALK inhibitor	1%	-2%	3%	1%	4%

[16] COC(=O)c1cccc(S(=O)(=O)N2CCN(c3nc4ccccc4s3)CC2)c1
[17] CCOC(=O)N1CCN(Cc2nc3c(c(=O)n(C)c(=O)n3C)n2Cc2cccc3ccccc23)CC1
[18] COc1ccc(OC)c2c(N3CCN(C)CC3)cc(C(F)(F)F)nc12
[19] COC(=O)c1nc(-c2ccccc2)n[nH]1
[20] COC(=O)CNc1c(-c2ccccn2)nc2ccc(Br)cn12
compound no.	16	17	18	19	20
B2AR arrestin	-1.1%	-0.4%	4.6%	-0.1%	-0.3%
PTAP TSG101 blk	-2%	-2%	0%	-3%	-19%
Coupling enz	-2	2	-23	3	-17
Tb PFK inh	-4%	-4%	0%	2%	-9%
Menin-MLL TR inh	-10%	-12%	-15%	4%	-20%
Giardia kill	6	-7	11	-11	1
a7 integrin act	10%	3%	9%	-7%	-5%
BCR signal inh	6%	-2%	-2%	16%	?
GALK inhibitor	0%	8%	5%	-2%	1%

[21] CN(C)c1ccc(C(=O)Nc2ccc(S(=O)(=O)NC3=NCCCCC3)cc2)cc1
[22] O=C(CSCCNS(=O)(=O)c1ccccc1)Nc1ccccc1
[23] CCc1cc(=O)oc2cc(OCC(=O)OC)c(Cl)cc12
[24] Cc1cc(S(=O)(=O)N2CCN(c3c(C)cccc3C)CC2)ccc1F
[25] Nc1nnc(-c2ccc(F)cc2)s1
compound no.	21	22	23	24	25
B2AR arrestin	-1.2%	0.4%	0.0%	0.0%	-0.4%
PTAP TSG101 blk	-2%	0%	-11%	-5%	-1%
Coupling enz	0	0	2	-9	1
Tb PFK inh	?	-1%	-4%	-4%	0%
Menin-MLL TR inh	-3%	4%[11.7 µM]	3%	?	-4%
Giardia kill	-13	-14	-12	16	-4
a7 integrin act	-4%	-10%	16%	1%	3%
BCR signal inh	-2%	-1%	?	?	?
GALK inhibitor	-1%	1%	-2%	1%	3%

[26] CC1=CC(C)(C)Nc2ccc(OC(=O)CN3C(=O)CCC3=O)cc21
[27] Cc1ccc(CNC(=O)C2CC(=O)OC23CCCC3)c(C)c1 (stereo not given)
[28] CCCN1C(=O)c2ccc(C(=O)NC3=NCCS3)cc2C1=O
[29] O=S(=O)(NCCc1ccncc1)c1ccc(S(=O)(=O)N2CCCCCC2)cc1
[30] O=C(NCc1n[nH]c(=S)n1-c1ccc(F)cc1)c1ccco1
[31] CC1(C(=O)O)Sc2[nH]c(=O)sc2C2c3ccccc3OC(=O)C21 (stereo not given)
[32] CCOC(=O)c1ccc2nc(C)c3c(c2c1)OC(C)C3 (stereo not given)
[33] O=C(CN1CCOCC1)Nc1ncccn1
compound no.	26	27	28	29	30	31	32	33
B2AR arrestin	0.0%	-0.1%	-0.7%	-0.5%	-0.3%	0.1%	-0.2%	0.0%
PTAP TSG101 blk	-7%	-1%	0%	-8%	-5%	-1%	-9%	-2%
Coupling enz	-32*	1	4	1	5	-6	-1	-1
Tb PFK inh	-6%	-9%	-7%	-2%	1%	2%	-6%	0%
Menin-MLL TR inh	-16%	6%	-1%	5%	-2%	0%	-4%	.
Giardia kill	-18	9	-1	-25	-16	-16	-3	6
a7 integrin act	-63%[inhibitor]	14%[7.66 µM]	23%	2%[7.66 µM]	21%	26%	15%	0%
BCR signal inh	?	-7%	11%	-1%	11%	?	5%	?
GALK inhibitor	-2%	-1%	0%	1%	1%	2%	0%	-1%

# Records 22 to 33, quoted:
[22] O=C(CSCCNS(=O)(=O)c1ccccc1)Nc1ccccc1
[23] CCc1cc(=O)oc2cc(OCC(=O)OC)c(Cl)cc12
[24] Cc1cc(S(=O)(=O)N2CCN(c3c(C)cccc3C)CC2)ccc1F
[25] Nc1nnc(-c2ccc(F)cc2)s1
[26] CC1=CC(C)(C)Nc2ccc(OC(=O)CN3C(=O)CCC3=O)cc21
[27] Cc1ccc(CNC(=O)C2CC(=O)OC23CCCC3)c(C)c1 (stereo not given)
[28] CCCN1C(=O)c2ccc(C(=O)NC3=NCCS3)cc2C1=O
compound no.	22	23	24	25	26	27	28
B2AR arrestin	0.4%	0.0%	0.0%	-0.4%	0.0%	-0.1%	-0.7%
PTAP TSG101 blk	0%	-11%	-5%	-1%	-7%	-1%	0%
Coupling enz	0	2	-9	1	-32*	1	4
Tb PFK inh	-1%	-4%	-4%	0%	-6%	-9%	-7%
Menin-MLL TR inh	4%[11.7 µM]	3%	?	-4%	-16%	6%	-1%
Giardia kill	-14	-12	16	-4	-18	9	-1
a7 integrin act	-10%	16%	1%	3%	-63%[inhibitor]	14%[7.66 µM]	23%
BCR signal inh	-1%	?	?	?	?	-7%	11%
GALK inhibitor	1%	-2%	1%	3%	-2%	-1%	0%

[29] O=S(=O)(NCCc1ccncc1)c1ccc(S(=O)(=O)N2CCCCCC2)cc1
[30] O=C(NCc1n[nH]c(=S)n1-c1ccc(F)cc1)c1ccco1
[31] CC1(C(=O)O)Sc2[nH]c(=O)sc2C2c3ccccc3OC(=O)C21 (stereo not given)
[32] CCOC(=O)c1ccc2nc(C)c3c(c2c1)OC(C)C3 (stereo not given)
[33] O=C(CN1CCOCC1)Nc1ncccn1
compound no.	29	30	31	32	33
B2AR arrestin	-0.5%	-0.3%	0.1%	-0.2%	0.0%
PTAP TSG101 blk	-8%	-5%	-1%	-9%	-2%
Coupling enz	1	5	-6	-1	-1
Tb PFK inh	-2%	1%	2%	-6%	0%
Menin-MLL TR inh	5%	-2%	0%	-4%	.
Giardia kill	-25	-16	-16	-3	6
a7 integrin act	2%[7.66 µM]	21%	26%	15%	0%
BCR signal inh	-1%	11%	?	5%	?
GALK inhibitor	1%	1%	2%	0%	-1%
